# HNF4A DNA FP = change in binding of human HNF4 alpha to DNA. 360,000 compounds, 0.3% hits. HNF4a-FITC DNA binding, fluorescence polarization, 1 h. activity change, % at 10 µM; in the data active = activity change above about 30%, passing the limit was not always enough;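 also: controls were the assay level and a saturating level of protein; the project sought stronger binding though the title names inhibitors; some compounds called inactive have numbers as strong as hits; positive values seem to mean higher polarization but the record does not say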
# Vif TR-FRET = HIV-1 Vif–A3G interaction blockers – biochemical, TR-FRET, GST-Vif 1-94, biotin-A3G peptide, dose response retest, primary screen (AID 1117319); inhibition, %, or IC50 in µM where a hit was titrated; 260,000 compounds, 0.57% hits; TR-FRET GST-Vif / biotin-A3G peptide binding; higher % means a stronger effect; test concentration not given here; strong numbers were not always called active;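 active = above the screen mean plus three standard deviations and confirmed in dose response; inconclusive = results disagree or hit not tested in dose response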;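 also: Vif residues 1-94 fused to GST binding biotinylated APOBEC3G peptide 110-148; 0% = full assay without inhibitor and 100% = GST in place of GST-Vif; retest series ran down from 100 µM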
# Beta2AR agonist = human beta-2 adrenergic receptor agonism by FAP | 340,000 compounds, 0.43% hits | Am2.2-beta2AR cells, FAP receptor internalization, flow cytometry; reference of the scale not given here | response, % (concentration not given with the values) | P07550;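 active = response above a set limit, near 3 SD of response in nonfluorescent compounds, cut at about 42% in these data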;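 also: stock transfer was 100 nL into about 11 µL; a reference agonist was the positive control; negative values mostly stem from fluorescent compounds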
# Calb FLC = affects C. albicans growth with fluconazole | C. albicans CaCi-2 (fluconazole-resistant clinical isolate) + fluconazole, Alamar Blue growth, 48 h | growth inhibition, % (concentration not given with the values) | 300,000 compounds, 0.57% hits | AID 1979;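 active = most replicates above 75%; inconclusive = exactly half above 75%; inactive = most below 75%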;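 also: all wells also contain fluconazole at 8 µg/ml as a sub-toxic cotreatment; 0% = median of DMSO wells and 100% = median of geldanamycin control wells; wells of about 8 µL received 7.5 nL stock; the first replicate is given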
# LANA-H2B inh = blocks KSHV LANA binding to histone H2A/H2B | inhibition, % (concentration not given with the values) | AID 2629 | 320,000 compounds, 0.6% hits | cell-free LANA-H2A/H2B peptide, fluorescence polarization | Q9QR71; in the data active = inhibition mostly above about 10%, no sharp cut-off; inactive = mostly below about 6.7%;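 also: stock transfer was 7.5 nL into about 10 µL; 0% = median of vehicle wells and 100% = median of positive control wells; one replicate is shown; the record names a cut of 25% in any replicate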
# Target sequence (Q9QR71 whole entry, looked up): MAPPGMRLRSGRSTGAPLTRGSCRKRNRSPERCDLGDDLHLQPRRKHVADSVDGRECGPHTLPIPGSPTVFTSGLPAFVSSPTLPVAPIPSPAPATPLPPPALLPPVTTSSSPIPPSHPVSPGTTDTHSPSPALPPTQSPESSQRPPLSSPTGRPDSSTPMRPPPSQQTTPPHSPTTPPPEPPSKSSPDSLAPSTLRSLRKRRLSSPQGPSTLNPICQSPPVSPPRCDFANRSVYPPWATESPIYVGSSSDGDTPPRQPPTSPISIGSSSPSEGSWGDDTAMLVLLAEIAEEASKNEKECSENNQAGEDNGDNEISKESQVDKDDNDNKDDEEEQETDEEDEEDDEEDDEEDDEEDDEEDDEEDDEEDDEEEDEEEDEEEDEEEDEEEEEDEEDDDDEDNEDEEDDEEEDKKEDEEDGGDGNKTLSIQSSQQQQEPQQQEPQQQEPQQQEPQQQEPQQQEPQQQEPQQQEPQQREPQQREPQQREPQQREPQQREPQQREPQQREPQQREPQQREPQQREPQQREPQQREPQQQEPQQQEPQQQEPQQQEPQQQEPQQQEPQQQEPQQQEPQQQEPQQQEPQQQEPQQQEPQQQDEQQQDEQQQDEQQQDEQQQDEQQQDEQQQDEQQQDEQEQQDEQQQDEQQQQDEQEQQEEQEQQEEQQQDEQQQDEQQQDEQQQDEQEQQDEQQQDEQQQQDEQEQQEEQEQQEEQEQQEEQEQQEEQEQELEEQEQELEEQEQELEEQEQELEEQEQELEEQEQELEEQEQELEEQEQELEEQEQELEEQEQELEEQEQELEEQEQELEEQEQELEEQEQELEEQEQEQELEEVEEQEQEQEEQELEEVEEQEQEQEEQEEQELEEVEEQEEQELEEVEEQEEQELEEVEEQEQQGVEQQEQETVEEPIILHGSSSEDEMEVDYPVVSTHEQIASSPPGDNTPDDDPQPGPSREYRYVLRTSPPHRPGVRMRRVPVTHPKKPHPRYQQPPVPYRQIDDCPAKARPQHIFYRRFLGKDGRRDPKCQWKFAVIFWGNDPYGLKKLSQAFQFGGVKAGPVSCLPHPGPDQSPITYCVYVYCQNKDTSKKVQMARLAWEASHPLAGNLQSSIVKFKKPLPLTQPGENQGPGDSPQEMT
# ALR inh = human ALR oxidase inhibition via reduced H2O2 | P55789 | purified ALR, DTT oxidation, H2O2 HRP-luminol luminescence | inhibition, % (concentration not given with the values) | 290,000 compounds, 3.8% hits | AID 485317;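 active = mean and each replicate at 75% or more; inconclusive = only one of the two met; inactive = neither met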;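 also: stock transfer was 7.5 nL into about 7.5 µL; 0% = neutral wells and 100% = wells with inactivated enzyme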
# RanGTP-Impb inh = disruptors of Ran-importin-beta complex formation – biochemical, FRET, CFP-Ran, YFP-importin-beta, homogeneous, primary screen | cell-free CFP-Ran/YFP-importin-beta FRET ratio | inhibition, % (concentration not given with the values) | 300,000 compounds, 1.1% hits | AID 2216;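 active = most replicates above 15%; inconclusive = exactly half above 15%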;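 also: 0% = DMSO wells and 100% = Ran loaded with GDP instead of GTP; wells of about 40 µL received 100 nL stock; the first replicate is given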
# Starred values were filed as active, the others as inactive; ? = inconclusive; . = no result given.
SMILES,HNF4A DNA FP,Vif TR-FRET,Beta2AR agonist,Calb FLC,LANA-H2B inh,ALR inh,RanGTP-Impb inh
Cc1cccc(N2C(=O)CC(n3ccnc3)C2=O)c1C (stereo not given),-0.4,-5%,1,9,-0.7,-5,0.8
Cc1ccc(C)c(CN2CCC(CNC(=O)CCc3nnc4ccc(N5CCCCC5)nn34)CC2)c1,2.0,8%,-13,2,-2.2,-3,-4.9
CCCc1cc(=O)[nH]c(NCc2ccc(Cl)cc2)n1,-1.3,6%,5,3,0.9,.,-0.8
COc1ccc(NC(=O)Cn2cnc3c(oc4nc5c(cc43)COC(C)(C)C5)c2=O)cc1,-0.2,0%,-10,17,-4.5,2,3.8
Cc1cc(C)cc(N(C(=O)c2snc(C(N)=O)c2N)C(C(=O)NCC2CCCO2)c2cccs2)c1 (stereo not given),5.0,-3%,-1,-10,1.5,-12,-1.8
CCS(=O)(=O)c1nc(S(=O)(=O)c2ccc(C)cc2)c(N2CCC(O)CC2)s1,-3.1,1%,2,23,-0.1,2,1.8
Cc1ccccc1Oc1ncnc(N)c1[N+](=O)[O-],-2.8,5%,1,3,-2.1,.,1.7
CNC(=S)N1CCc2sccc2C1C (stereo not given),-3.0,.,1,-7,3.1,.,-0.1
N/C(=N\OS(=O)(=O)c1ccc(Cl)cc1)c1ccccn1,1.9,-6%,-5,.,.,.,.
CCN(CC)C(=O)C(=O)c1cccn1-c1cccc(OC)c1C#N,3.9,-6%,5,25,1.2,-8,6.2
O=C(COC(=O)CC1CC2CCC1C2)Nc1ccc(Cl)c(S(=O)(=O)N2CCOCC2)c1 (stereo not given),5.2,0%,-1,.,-3.3,1,.
CC(C)Oc1ccc(C2CC(=O)N(c3cccc(/C=C/C(=O)O)c3)C2=O)cc1 (stereo not given),1.0,8%,3,.,-6.1,16,-1.6
S=C(NCC1CCCO1)Nc1ccc(Cl)c(Cl)c1 (stereo not given),-2.8,-1%,-4,-5,-2.4,-1,1.6
COc1ccc(-n2c(SCC(=O)NCc3ccco3)nnc2-c2c[nH]c3ccccc23)cc1,0.6,7%,8,12,-1.2,1,1.0
CC12CCC(C(=O)Nc3ccc(SC(F)F)cc3)(CC1=O)C2(C)C (stereo not given),2.2,-1%,-5,-6,-5.2,-5,-10
CN1CCN(S(=O)(=O)c2cccc(C(=O)N(C)C(c3ccccc3)c3ccccc3)c2)CC1,1.4,-7%,.,-4,2.3,-7,.
C=CCn1c(SCC(=O)Nc2cccc(S(=O)(=O)N(C)c3ccccc3)c2)nnc1C1CC1,-5.0,-11%,-3,-1,3.1,-4,-2.6
COc1ccc(/C=N/NC(=O)CCn2cnc3ccccc32)cc1,5.5,.,-4,6,-6.9,-20,4.7
Cc1nn(CC(=O)N2CCCCC2)c(=O)c2nn(-c3ccccc3)c(C)c12,3.5,.,-6,-8,-1.1,-2,4.4
CCOC(=O)C(=O)NNc1ccccc1C,-1.1,.,13,19,-1.2,98*,-5.1
CCCn1nc([N+](=O)[O-])c(C(C#N)c2nc3ccccc3s2)c(Cl)c1=O (stereo not given),17,19%,20,99*,-5.6,97*,-0.3
Cc1cnc(C(=O)OCC(=O)Nc2ccc(OCc3ccccc3)cc2)cn1,2.9,-8%,-15,.,2.8,-11,.
CCN(CC(N)=O)S(=O)(=O)c1ccc(Br)cc1,0.5,30%,6,-6,2.1,1,?
CCCN(CC1CC1)C(=S)Nc1ccc(C(C)=O)cc1,1.1,-8%,-1,-1,-3.6,-4,-2.1
CCOC(=O)N1CCC(N(C(=O)Nc2ccc(CC)cc2)C(C)CC)CC1 (stereo not given),3.6,-5%,2,9,-2.6,-10,-1.9
C=CCNC(=S)NN=C1CCC(c2ccccc2)CC1 (stereo not given),-0.1,.,7,-8,-1.8,0,-1.6
CC(=O)OCC(=O)Nc1ccccc1OC(F)F,-0.1,1%,-5,15,-8.1,0,1.5
COc1ccc(N(CC(=O)NC2CCCCCC2)S(=O)(=O)c2c(C)nn(C)c2C)cc1,4.0,2%,-5,.,0.5,-14,.
COc1cccc(/C=N/n2c(N)c(S(=O)(=O)c3cccs3)c3nc4ccccc4nc32)c1,-4.0,76%,42,?,1.2,-13,1.1
O=C(C1CCCO1)N1CCN(C(=S)Nc2ccc(Cl)cc2)CC1 (stereo not given),0.9,.,5,-6,8.6,0,0.9
C/C(=N\NC(=S)Nc1ccc(C)c(C)c1)c1ccc(N2CCOCC2)cc1,2.9,26%,3,3,-0.2,-24,-1.4
CC(=O)C1C(=O)C=C(c2ccco2)CC1c1ccccc1 (stereo not given),5.1,?,1,4,1.5,2,-1.3
COc1ccc(C(=O)OCC(=O)NC23CC4CC(CC(C4)C2)C3)c(OC)c1OC,-1.8,-9%,-5,.,0.5,-5,.
COC(=O)c1c(NC(=O)C2CC(=O)NN2Cc2ccccc2)sc(C)c1C (stereo not given),-0.9,5%,22,14,2.8,-7,-3.4
O=C1SC(Cc2ccccc2)C(=O)N1c1ccccc1 (stereo not given),7.9,0%,-12,3,-1.2,.,1.0
O=C(NNc1nc2cc3c(cc2s1)OCO3)c1ccc(F)cc1,-3.0,7%,9,-8,2.6,.,-5.5
Cc1ccc(C(C[N+](=O)[O-])c2c(C)[nH]n(-c3ccccc3)c2=O)cc1 (stereo not given),-3.9,0%,4,9,-6.4,4,-2.9
Cc1cc(C)nc(/N=C(\N)Nc2ccc(S(=O)(=O)Nc3nc(C)cc(C)n3)cc2)n1,.,.,.,-5,-0.3,-6,-2.9
COc1ccc(C2=NS(=O)(=O)N(C)C(C(=O)N(C)Cc3ccccc3)=C2)cc1,0.5,.,-6,10,0.0,-4,7.0
O=C(CN1CCCCCC1)Nc1ccccc1,-1.4,.,0,-2,-5.8,2,1.8

# Reprinted from above (two entries):
SMILES,HNF4A DNA FP,Vif TR-FRET,Beta2AR agonist,Calb FLC,LANA-H2B inh,ALR inh,RanGTP-Impb inh
Cc1cccc(N2C(=O)CC(n3ccnc3)C2=O)c1C (stereo not given),-0.4,-5%,1,9,-0.7,-5,0.8
Cc1ccc(C)c(CN2CCC(CNC(=O)CCc3nnc4ccc(N5CCCCC5)nn34)CC2)c1,2.0,8%,-13,2,-2.2,-3,-4.9

# Continuation.
SMILES,HNF4A DNA FP,Vif TR-FRET,Beta2AR agonist,Calb FLC,LANA-H2B inh,ALR inh,RanGTP-Impb inh
O=C(NCc1nc2ccccc2[nH]1)C1=C[C@H](C2CCCCC2)C[C@H](OCCCCO)O1,2.5,.,-13,5,-1.9,-5,3.1
CC1(C)CC(NC(=O)C(=O)NCCc2ccc(Cl)cc2)CC(C)(C)N1,1.5,9%,-11,-4,7.3,0,?
COc1ccc(CCN2CC(C(=O)NC3CCCCC3)CC2=O)cc1OC (stereo not given),1.0,?,0,13,2.6,-9,-2.5
CCN(CC(=O)Nc1ccccc1OC)C(=O)/C=C/c1cccs1,-1.9,3%,1,-6,7.3,-6,0.3
Cc1ccc([N+](=O)[O-])cc1NC(=O)C(C)Sc1nnc(C)n1CC1CCCO1 (stereo not given),-0.2,.,-7,-4,-1.8,-17,0.4
Cc1ccccc1NC(=S)N/N=C/C(C)c1ccccc1 (stereo not given),5.8,-2%,-1,-2,-1.3,.,-0.5
Cc1cc(C(=O)COC(=O)c2ccc[nH]c2=O)c(C)n1-c1ccccc1,6.2,.,-3,-5,-1.3,.,4.5
COc1ccc(N(C(=O)CNC(=O)c2cccs2)C(C(=O)NCC2CCCO2)c2ccccc2)cc1 (stereo not given),0.9,9%,-18,6,-5.0,-6,-3.2
COc1ccc(-c2cc(C(F)(F)F)n3ncc(C(=O)NCC4CCCO4)c3n2)cc1 (stereo not given),0.3,2%,4,.,.,.,.
CC(Nc1cc(C)cc(C)c1)=[N+](C)CCNS(=O)(=O)c1ccc(Cl)cc1,2.3,.,24,-7,-1.9,0,-0.9
O=C(COc1ccccc1)Nc1ccc(S(=O)(=O)N2CCCC2)cc1,2.7,30%,-5,-1,.,.,?
CC1CCCCC12NC(=O)N(CC(=O)OCC(=O)N(C)C1CCCCC1)C2=O (stereo not given),-1.1,.,0,.,0.9,-2,.
Oc1ccc(C=NNC(=S)Nc2cccnc2)nc1,1.5,4%,-4,.,.,.,.
C#CCSc1nnc(-c2cc3c(C(F)(F)F)nn(C)c3s2)n1C,-2.5,12%,2,12,2.5,2,6.4
O=C(COc1ccc(C(=O)c2ccccc2)cc1)Nc1ncccc1O,0.5,-3%,-5,-10,0.1,-20,3.1
Cc1cccc(-c2nnc3n2N=C(c2ccc(Br)cc2)CS3)c1,.,.,.,-2,4.4,-13,1.1
O=C(NCC1CCCO1)c1ccccc1NC(=O)c1cccc2ccccc12 (stereo not given),-0.1,24%,-17,1,7.9,-3,-1.3
CC1(C)OC(=O)C2(Cc3ccccc3N3CCCCC32)C(=O)O1 (stereo not given),2.1,7%,6,-16,0.9,99*,-0.3
Cc1cc(C)nc(N2CCN(S(=O)(=O)c3ccc(F)cc3)CC2)n1,-1.4,2%,-2,-11,2.2,.,5.6
N#CC(C(=O)CCN1C(=O)C2CC=CCC2C1=O)c1nc2ccccc2[nH]1 (stereo not given),0.6,9%,16,.,0.0,5,2.4
O=C(CCN1CCOCC1)N1CCCC(Nc2ccc(F)cc2)C1 (stereo not given),-0.4,.,-3,3,0.9,55,-2.3
Cc1ccc(CNC(=O)C(=O)NCC2OCCN2C(=O)c2cccs2)cc1 (stereo not given),0.9,.,-8,2,-1.7,-5,1.0
Fc1ccccc1Nc1nc(Cl)nc(Cl)n1,2.8,1%,-1,-29,-1.2,-9,7.6
CCCOc1cccc(CN2CCCCC2c2cccnc2)c1 (stereo not given),-0.8,3%,-15,-14,-7.2,-2,?
O=C(CCc1nc(-c2ccc(F)cc2)no1)NCc1ccccc1CN1CCOCC1,4.0,6%,-10,.,2.6,-6,.
COc1ccc(C(=O)C=Cc2cccs2)c(O)c1,0.6,0%,4,.,.,.,.
CCSCCc1nnc(NC(=O)Nc2cccc(C(F)(F)F)c2)s1,21,-2%,20,-9,-1.5,-9,0.6
COc1ccc(/C=C/C(=O)OCC(=O)NC(=O)NC(C)(C)C)cc1,0.4,-11%,-2,1,-4.2,-4,0.2
COc1ccc(/C=C2/S/C(=N/S(=O)(=O)Cc3ccccc3)NC2=O)cc1OC,-1.6,-3%,5,-7,4.1,28,4.8
CC(C)Cc1oc(C(=O)O)cc1CN,2.6,8%,-5,6,-3.7,-2,2.1
COc1ccc2c(c1)CCC1C2CCC2(C)C(O)C(=O)CC12 (stereo not given),2.8,-6%,-4,.,.,.,.
Cc1nc(SCCc2nc3ccccc3[nH]2)c2oc3ccccc3c2n1,6.7,.,-6,.,-2.0,-7,.
COc1cccc(-c2nnc(-c3ccco3)o2)c1,1.5,-5%,-5,4,.,.,2.0
CCOc1c2ccc(C(=O)N[C@H](C)C3CCCCC3)cc2nn1CC,-3.9,13%,2,-1,-5.7,-5,-2.1
N=c1n(N)c2ccccc2n1CC(=O)c1ccc(Br)cc1,3.0,.,5,-8,-1.2,-6,?
CCOC(=O)c1c(NC(C)=O)sc2c(OCC(O)CN(CC)CC)c(Br)ccc12 (stereo not given),2.3,-7%,19,-10,3.8,-2,-1.1
CCOc1ccc(S(=O)(=O)N2CCN(C(=O)CN3C(=O)NC4(CCCC4)C3=O)CC2)cc1,-2.0,3%,-8,1,-2.7,-2,1.1
C[C@H]1CN=C(N(C)C)N1CCCCc1ccccc1,1.8,.,-1,.,7.7,.,.
CCOc1ccc(C(C)=O)cc1NC(=O)/C=C\C(=O)O,2.7,16%,2,-5,-8.0,3,-0.7
C[C@@H]1CN([C@H](C)CO)C(=O)c2cc(NS(=O)(=O)c3ccc(F)cc3)ccc2O[C@@H]1CN(C)Cc1ccc(Cl)c(Cl)c1,-0.3,0%,3,.,.,.,.
